# Rango-impB inh – prevents formation of the Rango-importin beta complex. Q14974. Rango CFP/YFP FRET sensor + importin beta, 45 min. Potency, µM (highest dose often 92.2 µM), without a hit: at the top dose inhibition of complex formation. hit rate 0.031% among 340,000. AID 540263; active = rising FRET ratio curve, often small or poorly fitted; inconclusive = mostly compound fluorescence or quenching in the first reads; inactive = flat curves in all reads;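 further: potency means the concentration at half of the fitted maximal effect; 0% = DMSO wells and 100% = buffer wells lacking importin beta; nearly all actives have a fitted effect of over 15% in size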
# Target sequence (Q14974 whole entry, looked up): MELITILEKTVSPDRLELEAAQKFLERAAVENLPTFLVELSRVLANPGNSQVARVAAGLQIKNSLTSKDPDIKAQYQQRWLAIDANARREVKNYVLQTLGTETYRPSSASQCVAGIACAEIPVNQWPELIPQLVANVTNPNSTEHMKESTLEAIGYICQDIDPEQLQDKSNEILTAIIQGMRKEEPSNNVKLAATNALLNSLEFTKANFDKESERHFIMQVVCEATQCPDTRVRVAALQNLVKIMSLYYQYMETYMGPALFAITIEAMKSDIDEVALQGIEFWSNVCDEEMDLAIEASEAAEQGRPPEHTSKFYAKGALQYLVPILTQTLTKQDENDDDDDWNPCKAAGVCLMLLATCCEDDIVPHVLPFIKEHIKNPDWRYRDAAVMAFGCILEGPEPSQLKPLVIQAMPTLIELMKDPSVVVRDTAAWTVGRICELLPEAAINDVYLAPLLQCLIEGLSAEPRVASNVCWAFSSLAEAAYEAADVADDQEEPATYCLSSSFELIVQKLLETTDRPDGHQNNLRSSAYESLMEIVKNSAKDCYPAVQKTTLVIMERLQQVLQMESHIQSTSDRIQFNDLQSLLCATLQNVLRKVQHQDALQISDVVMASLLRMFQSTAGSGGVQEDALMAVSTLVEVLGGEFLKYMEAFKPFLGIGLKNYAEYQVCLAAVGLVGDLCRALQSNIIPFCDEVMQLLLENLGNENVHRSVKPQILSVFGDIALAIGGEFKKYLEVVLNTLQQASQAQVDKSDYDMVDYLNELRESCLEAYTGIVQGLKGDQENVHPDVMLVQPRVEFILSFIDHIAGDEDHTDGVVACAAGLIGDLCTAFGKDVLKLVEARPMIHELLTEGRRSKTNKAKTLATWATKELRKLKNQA
#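 Inhibition scored from the CFP 486 nm/YFP 530 nm FRET ratio 45 min after adding 0.125 microM importin beta to 50 nM Rango biosensor preincubated 5 min with compound (room temperature, PBS with DTT, Tween-20, BSA). No-importin wells as positive control.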
# miR-21 FLuc – miR-21 reporter, rising signal | Potency, µM (highest dose often 38.3 µM), for the others: at the highest dose reporter change, positive = more light | AID 2288 | 340,000 tested, under 10 active | HeLa miR-21 FLuc reporter, luciferase, 48 h; active = well fitted rising curve with a large enough effect; inconclusive = small, poorly fitted or top-dose-only effect; inactive = no such curve, though single readings can be large or run the other way;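 further: % of control where 0% means no effect; miR-21 action dims this reporter so a rising signal means less miR-21 action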
#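 Using DMEM plus 10% FBS, HeLa miR-21-FLuc cells are incubated with test compounds (final up to about 40uM) for 48 hours; firefly luciferase signal is then imaged following reagent-mediated lysis.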
# Rango dissoc inh – prevents RanGTP from dissociating the Rango-importin beta complex; O95149+P62826; Biochemical FRET Rango-importin beta, RanGTP-induced dissociation; Potency, µM (top dose mostly 46.1 µM), without a hit: at the highest dose activity change, negative = inhibition; hit rate 0.071% among 340,000; active means falling FRET ratio curve, often poorly fitted, with flat reads before Ran was added; inconclusive means other falling curves, or compound fluorescence or quenching; inactive means flat or rising ratio curve;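 further: potency means the concentration at half of the fitted maximal effect; % of control where 0% means no effect; nearly all actives have a fitted effect of over 45% in size; -100% = wells without RanGTP and RCC1; the record marks most hits as doubtful in a second field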
#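 Rango/importin beta premix (0.1/0.25 uM final), PBS + 1 mM DTT + 0.02% Tween-20 + 0.1% BSA; cpd 5 min RT; FRET pre-read; + RanGTP-RCC1 (0.6 uM Ran, 2 mM GTP, 0.2 uM RCC1); 45 min RT; FRET post-read, ex 430, em 486/530 nm.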
# GLA inh pH 4.5 – blocks human alpha-galactosidase A at pH 4.5 | P06280 | purified enzyme, 4-MU-alpha-Gal fluorescence, pH 4.5 | activity change, negative = inhibition, % at 105 µM | 230,000 tested, under 10 active | AID 1467; inconclusive = small, poorly fitted or top-dose-only inhibition, or a rising curve; inactive = flat fitted curve, though single readings scatter; no compound was filed as active;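 further: 0% = full activity with enzyme and -100% = basal without enzyme; dose as in the result columns while the protocol names 77 µM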
# * marks the source's active call; other numbers are inactive results; ? = inconclusive; nt = no result given. This is a subset. The share of hits here may be higher or lower than overall.
Molecule | Rango-impB inh | miR-21 FLuc | Rango dissoc inh | GLA inh pH 4.5
COc1ccc(C(=O)Nc2ccc3c(c2)n(C)c(=O)n3C)cc1OC | 1.3% | -7% | 2% | nt
COC(=O)C1=C(C(=O)c2ccccc2)C(c2ccc(O)c(OC)c2)n2nnnc2N1 (stereo not given) | 3.5% | -4% | -9% | 8
NNC(=O)c1cnn(Cc2ccccc2)c1N | 2.9% | 6% | -7% | 1
O=[N+]([O-])c1cccc(/C([O-])=C(/C(=S)Nc2ccccc2F)[n+]2ccccc2)c1 | 0.3% | -46% | 0% | -4
Cn1c(SCC(=O)c2ccc(F)cc2)nnc1-c1ccccn1 | -3.5% | -8% | -3% | -1
O=C(Nc1ccccc1N1CCOCC1)c1cccs1 | 4.3% | -4% | 20% | -6
CC(C)C[C@@H]1NC(=O)[C@H](Cc2ccc(O)cc2)NC(=O)c2cc([N+](=O)[O-])cc(I)c2NCCC[C@@H](C(N)=O)NC1=O | ? | -8% | -19% | 4
COc1ccc(C)cc1-n1c(SCC(=O)Nc2cc(C)on2)nc2ccccc2c1=O | -0.6% | -1% | -21% | 4
CCOC(=O)/C(=N\Nc1ccccc1Cl)N1CCN(c2ccccc2OC)CC1 | -0.9% | 0% | -4% | 10
N#Cc1ccccc1S(=O)(=O)N1CCN(C(=O)C2CCC2)CC1 | -1.6% | nt | -2% | nt
COc1ccc(NC(=O)Cc2cccc3ccccc23)cc1 | -6.9% | -8% | -10% | nt
CC(=O)OCC(=O)Nc1cc(S(=O)(=O)N2CCCCCC2)ccc1Cl | -0.7% | -2% | 12% | -6
Cc1cccc(C)c1NC(=O)CNC(=O)C(Cc1ccccc1)NC(=O)c1ccccc1 (stereo not given) | 1.0% | -11% | 2% | nt
Cc1ccc(SC(C)C(=O)O/N=C(\N)c2ccncc2)cc1 (stereo not given) | -2.8% | -3% | -4% | nt
COc1ccc(C(=O)NC(=S)N2CCCCC2)cc1[N+](=O)[O-] | -0.2% | -3% | 5% | 1
C=CC[C@@H](CC(=O)OC(C)(C)C)C(=O)OC[C@@H]1CCCN1C(=O)[C@@H](CC=C)CC(=O)N[C@@H](CO)Cc1ccccc1 | -2.5% | nt | -5% | nt
O=[N+]([O-])c1cc2c(cc1/C=N/n1c(-c3ccccc3)n[nH]c1=S)OCO2 | -0.3% | -19% | -6% | 2
Cn1c(SCC(=O)NCCc2ccccc2)ncc(C(=O)Nc2ccc(F)cc2)c1=O | -0.3% | nt | -12% | nt
COCCN(C(=O)CSc1n[nH]c(-c2ccccc2)n1)c1c(N)n(Cc2ccccc2)c(=O)[nH]c1=O | 2.3% | nt | 17% | nt
Cc1nc2nc(-c3ccc(Cl)cc3)cn2nc1C | ? | -53% | ? | -1
O=C(/C=C/c1ccco1)NCCc1ccc(F)cc1 | -2.0% | -32% | -17% | nt
CCOc1ccc(-c2nnn(CC#N)n2)cc1OC | -3.9% | 13% | -17% | -5
O=C(CNCCc1ccc(Cl)cc1Cl)NCc1ccco1 | 6.6% | -3% | -13% | 3
Cc1ccc2cc(C)c3nnc(SCC(=O)N4CCCc5ccccc54)n3c2c1C | nt | -2% | nt | 5
O=S(=O)(Cc1ccccc1)NCc1ccccn1 | 3.9% | 1% | -3% | -2
CSc1cccc(CN2CCC(n3nccc3NC(=O)C3CC3)CC2)c1 | -3.0% | -3% | 10% | nt
O=C(c1ccc(S(=O)(=O)c2ccccc2)cc1)N1CCc2ccccc2C1 | -2.2% | -9% | 27% | 2
Cc1n[nH]c(C)c1NC(=O)c1cc([N+](=O)[O-])ccc1Cl | 0.7% | 2% | -16% | -29
COC(=O)c1ccc(Cl)c(NC(=O)CSc2ncn[nH]2)c1 | 0.4% | -1% | -7% | 2
Cc1ccc(S(=O)(=O)C2(C(=O)N3CCCCCC3)CC2)cc1 | ? | 0% | -6% | -4
Cc1ccc(NC(=O)COc2ccc(N3CC(C(N)=O)CC3=O)cc2)c(C)c1 (stereo not given) | 1.1% | -1% | 9% | nt
NS(=O)(=O)c1ccc(CCNC(=O)c2cccnc2)cc1 | 3.5% | 3% | 3% | -4
O=c1c2ccccc2sc2ccc(NCCCN3CCOCC3)cc12 | ? | nt | ? | nt
CCn1c(SCC(=O)N2CCCc3ccccc32)nnc1-c1ccco1 | 0.3% | 4% | -6% | 12
CCN(C(=O)CSc1nc2nc(C)cc(C)n2n1)c1cccc(C)c1 | 0.9% | -7% | -12% | -2
CC(C)(C)c1ccc(C(=O)NC2CCS(=O)(=O)C2)cc1 (stereo not given) | 0.6% | -19% | 0% | nt
Cc1ccccc1CS(=O)(=O)Cc1ccc(C(=O)NCc2ccccn2)o1 | 4.1% | -3% | -14% | 14
CCC(c1ccccc1)c1nc(-c2ccccn2)no1 (stereo not given) | 0.5% | -39% | 25% | 2
CC(=O)c1cccc(NC(=O)NNC(=O)c2ccc(Cl)cc2Cl)c1 | -1.6% | 13% | -9% | 6
Cc1ccc(CN(C)C(=O)c2cc(Br)c(Br)s2)o1 | 1.7% | -7% | -13% | nt
CN(C)c1ccc(NC(=O)Cc2ccccc2)c2ccccc12 | 2.0% | -39% | 32% | nt
COc1ccc(CCNC(=O)CN2CCN(Cc3ccccc3F)C2=O)cc1OC | 0.1% | -3% | 0% | -5
CCn1c(=O)c(C(=O)NCc2ccc(OC)c(OC)c2)c(O)c2ccccc21 | 0.0% | -5% | -10% | 4
CCOc1ccc(S(=O)(=O)Nc2ccccc2C(=O)N(C)C2CCN(C)CC2)cc1 | 6.3% | nt | -14% | nt
Cc1nnc(SCc2ccc(F)cc2)s1 | -2.1% | -34% | 1% | 4

# A portion of the results above, for reference:
Molecule | Rango-impB inh | miR-21 FLuc | Rango dissoc inh | GLA inh pH 4.5
CN(C)c1ccc(NC(=O)Cc2ccccc2)c2ccccc12 | 2.0% | -39% | 32% | nt
COc1ccc(CCNC(=O)CN2CCN(Cc3ccccc3F)C2=O)cc1OC | 0.1% | -3% | 0% | -5

# 5 compounds already listed, ordered by their value in Rango-impB inh, largest number first:
Molecule | Rango-impB inh | miR-21 FLuc | Rango dissoc inh | GLA inh pH 4.5
CCOc1ccc(S(=O)(=O)Nc2ccccc2C(=O)N(C)C2CCN(C)CC2)cc1 | 6.3% | nt | -14% | nt
Cc1ccccc1CS(=O)(=O)Cc1ccc(C(=O)NCc2ccccn2)o1 | 4.1% | -3% | -14% | 14
NS(=O)(=O)c1ccc(CCNC(=O)c2cccnc2)cc1 | 3.5% | 3% | 3% | -4
CCC(c1ccccc1)c1nc(-c2ccccn2)no1 (stereo not given) | 0.5% | -39% | 25% | 2
COc1ccc(CCNC(=O)CN2CCN(Cc3ccccc3F)C2=O)cc1OC | 0.1% | -3% | 0% | -5

# Going on with the list:
Molecule | Rango-impB inh | miR-21 FLuc | Rango dissoc inh | GLA inh pH 4.5
CCOC(=O)c1ccc(NS(=O)(=O)c2ccc(-c3coc(C)n3)cc2)cc1 | -0.2% | -1% | -7% | nt
COc1ccccc1NC(=O)NN1CCCCC1 | 0.2% | -4% | 13% | nt
NC(=O)N/N=C/c1ccc([N+](=O)[O-])o1 | ? | nt | -19% | -15
CCOC(=O)N1CCC(N2C(=O)c3ccc(C(=O)NCCC(C)C)cc3C2=O)CC1 | 3.1% | 1% | 13% | nt
CC(NCC(=O)Nc1ccccc1C(=O)NC1CC1)c1cccs1 (stereo not given) | 4.7% | nt | -18% | nt
O=S1(=O)CCC(N2CCOCC2)C1 (stereo not given) | -0.2% | -1% | -9% | 7
CC(C)c1ccc(NC2CCCN(C(=O)c3ccsc3)C2)cc1 (stereo not given) | -0.4% | -6% | -1% | nt
COC(=O)c1ccc(CSc2nc(-c3ccccc3)cs2)o1 | -1.2% | -34% | 3% | -3
O=c1c2ccccc2nnn1CSc1nnc2sc3ccccc3n12 | nt | -31% | nt | -1
COc1ccc(OC)c(S(=O)(=O)N(C)CC(=O)N2CCN(c3ccc(F)cc3)CC2)c1 | 4.8% | 0% | -8% | 15
Cc1ccc(C(=O)NNC(=O)CCC(=O)Nc2cc(C)on2)cc1 | -0.4% | -6% | 2% | -1
COc1ccccc1-c1ccc(=O)n(CC(=O)NCC2CCCO2)n1 (stereo not given) | -1.2% | 1% | -4% | 10
Cc1cccc(C)c1NC(=S)/C(=C(\[O-])c1cccs1)[n+]1ccccc1 | -5.2% | 4% | -10% | -3
COc1ccc(N(Cc2cc(=O)[nH]c3ccccc23)C(C)=O)cc1 | -2.1% | 0% | 3% | nt
Cc1ccc(S(=O)(=O)N(CCC(=O)O)Cc2ccc(Cl)cc2)cc1 | -0.8% | 0% | 12% | 5
O=C(c1ccc(Cl)cc1Cl)C1(n2cncn2)Oc2ccccc2C1O (stereo not given) | 0.1% | -11% | 6% | -1
O=S(=O)(c1cccs1)N1CCN(c2ccccc2F)CC1 | -0.5% | -5% | 10% | nt
Cc1cc(C(=O)CSc2nnc(C3CC3)n2C2CC2)c(C)n1C(C)C | 5.9% | nt | -3% | nt
O=S(=O)(NCCCCCNS(=O)(=O)c1ccccc1)c1ccccc1 | -6.0% | 12% | 8% | 0
Cc1ccc(-n2cccc2/C=C2\C(=N)N3N=C(c4ccco4)SC3=NC2=O)cc1 | ? | 0% | ? | -4
O=C(NCC(F)(F)F)Nc1nnc(C(F)(F)F)s1 | 5.4% | 7% | 5% | 5
C[C@H](CO)N1C[C@H](C)[C@@H](CN(C)C)Oc2c(NC(=O)CCC(F)(F)F)cccc2C1=O | -3.0% | nt | -12% | nt
CCc1ccc(/C=C/c2c[nH]c3ccccc23)[n+](CC)c1 | ? | ? | ? | -7
O=C(NCCCCNC(=O)c1c(Cl)cccc1Cl)c1c(Cl)cccc1Cl | -3.4% | nt | 11% | nt
N=C1C(c2nc(-c3ccc(Cl)cc3)cs2)=C(O)CN1NC(=O)c1ccc(O)cc1 | 2.9% | -40% | -11% | 3
COc1cccc(C(=O)NC2=NCCS2)c1OC | 2.6% | -50% | -4% | 8
O=C(Nc1c(C(=O)N2CCOCC2)cnn1-c1ccccc1)c1cccc(F)c1 | -0.3% | -2% | 0% | nt
O=C(NCc1ccccn1)c1ccc(-c2ccccc2)cc1 | 1.8% | -60% | -9% | 1
O=C(CCc1nc2ccccc2c(=O)[nH]1)Nc1nnc(SCc2ccccc2)s1 | ? | nt | -14% | nt

# Arranged by molecular weight (rising): part of the list above
Molecule | Rango-impB inh | miR-21 FLuc | Rango dissoc inh | GLA inh pH 4.5
O=C(NCC(F)(F)F)Nc1nnc(C(F)(F)F)s1 | 5.4% | 7% | 5% | 5
O=S(=O)(c1cccs1)N1CCN(c2ccccc2F)CC1 | -0.5% | -5% | 10% | nt
O=S(=O)(NCCCCCNS(=O)(=O)c1ccccc1)c1ccccc1 | -6.0% | 12% | 8% | 0
N=C1C(c2nc(-c3ccc(Cl)cc3)cs2)=C(O)CN1NC(=O)c1ccc(O)cc1 | 2.9% | -40% | -11% | 3
C[C@H](CO)N1C[C@H](C)[C@@H](CN(C)C)Oc2c(NC(=O)CCC(F)(F)F)cccc2C1=O | -3.0% | nt | -12% | nt
